Source: PubChem BioAssay
PINK1 expr mod = A Quantitative High throughput Screen to Identify Chemical Modulators of PINK1 Expression. PINK1 immunofluorescence, high-content cytometry, 24 h. AID 624263, 2012. 0.2% of 410,000 active. Potency, µM (top dose mostly 76.6 µM), for the others: top-dose activation (PINK1 increase), hits mostly activators; active = well fitted activation curve with a large enough effect; inconclusive = small, poorly fitted or top-dose-only effect; inactive = flat fitted curve, though single readings scatter; cell line not stated here;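 also: potency is read from the fitted curve at half-maximal effect; % of control where 0% means no effect; nearly all actives have a fitted effect of over 65% in size; a mitochondrial uncoupler was the plate control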
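Compound titrations (5 concentrations, 24 h) on a stable cell line; DMSO and CCCP controls. Endpoint: fixed-cell PINK1 immunofluorescence with mitochondrial, cell and nuclear markers, scanned by microplate cytometer.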
Sfp inh = qHTS Assay for Inhibitors of Bacillus subtilis Sfp phosphopantetheinyl transferase (PPTase). Biochemical Sfp PPTase activity, qHTS. 4'-phosphopantetheinyl transferase ffp (Bacillus subtilis), Q9F4F7. Potency, µM, for the others: max response, negative = inhibition, most hits filed as inhibitors. 3.5% of 310,000 active; active = well fitted inhibition curve with a large enough effect; inconclusive = small, poorly fitted or top-dose-only effect, or another doubt; inactive = no such curve, though single readings can be large or run the other way;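 also: the enzyme is Sfp with the accession as filed and its product quenches rhodamine fluorescence; potency is read from the fitted curve at half-maximal effect; 0% = enzyme reaction without inhibitor and -100% = no enzyme wells; top concentration of the series not given in the record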
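With Hepes-Na pH 7.6 buffer containing 10 mM MgCl2, Sfp (15 nM) modified BHQ-2-YbbR (12.5 uM) using rhodamine-CoA (5 uM). Two reads 30 minutes apart at 525/598 nm yielded each well's rate.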
Six1-Eya2 inh = qHTS Assay for Inhibitors of the Six1/Eya2 Interaction | activity change, % (test concentration not listed) | AlphaScreen GST-Six1/His-Eya2 binding, biochemical; stronger effect = lower value; control for the full effect not named in the record | 0.56% of 360,000 active | Homeobox protein SIX1 (Homo sapiens) + Protein phosphatase EYA2 (Homo sapiens), …; in the data active = activity change below about -65%; inconclusive = about -30% to -65%; inactive = above about -30%; also: % is scaled to controls: 0 for no effect and ±100 for the full control effect; compound concentration not given in the record
Target sequence (O00167 whole entry, looked up): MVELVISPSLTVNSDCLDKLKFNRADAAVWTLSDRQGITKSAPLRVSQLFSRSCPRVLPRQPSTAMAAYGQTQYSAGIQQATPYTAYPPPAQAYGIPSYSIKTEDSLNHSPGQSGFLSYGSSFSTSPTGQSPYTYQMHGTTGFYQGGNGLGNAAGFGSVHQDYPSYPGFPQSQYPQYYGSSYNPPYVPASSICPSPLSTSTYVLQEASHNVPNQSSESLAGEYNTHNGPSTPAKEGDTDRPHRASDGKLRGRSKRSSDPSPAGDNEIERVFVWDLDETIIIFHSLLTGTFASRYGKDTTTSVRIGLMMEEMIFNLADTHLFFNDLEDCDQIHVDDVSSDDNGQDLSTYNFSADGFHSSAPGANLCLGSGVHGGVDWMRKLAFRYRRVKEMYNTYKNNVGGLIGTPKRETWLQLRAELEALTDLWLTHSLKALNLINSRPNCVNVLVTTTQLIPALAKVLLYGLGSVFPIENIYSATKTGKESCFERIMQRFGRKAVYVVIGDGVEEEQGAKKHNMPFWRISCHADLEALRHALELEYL
Target sequence (Q15475 whole entry, looked up): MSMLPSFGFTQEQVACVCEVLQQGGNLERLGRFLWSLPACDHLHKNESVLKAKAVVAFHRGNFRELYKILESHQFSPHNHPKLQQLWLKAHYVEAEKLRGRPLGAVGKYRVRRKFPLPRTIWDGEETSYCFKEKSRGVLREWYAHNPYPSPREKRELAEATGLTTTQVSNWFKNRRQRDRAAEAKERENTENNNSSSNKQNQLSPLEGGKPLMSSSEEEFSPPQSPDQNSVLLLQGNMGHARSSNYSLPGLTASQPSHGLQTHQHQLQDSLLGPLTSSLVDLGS
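Compounds are tested against tagged Six1 and Eya2 proteins bridged by glutathione donor and nickel acceptor beads; after a one-hour incubation at 37 °C without light, AlphaScreen emission is recorded.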
CtBP-E1A inh = qHTS Assay for Inhibitors of the CtBP/E1A Interaction; CtBP / adenovirus E1A interaction (AlphaScreen); AlphaScreen GST-E1A/His-CtBP binding, 1536-well; stronger effect = lower value; control for the full effect not named in the record; activity change, % (concentration not given with the values); 0.49% of 340,000 active; AID 651724, 2012; in the data active means activity change below about -65%; inconclusive means about -30% to -65%; inactive means above about -30%; also: % is scaled to controls: 0 for no effect and ±100 for the full control effect
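GST-E1A and His-tagged CtBP (125 nM each as 5X stock) were preincubated with pin-transferred compound for 2 h at 37 °C in the dark, then glutathione donor and nickel acceptor beads were added for 1 h before AlphaScreen reading.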
D2 ag = Beta-Arrestin HTS for Positive Allosteric Modulators of the Human D2 Dopamine Receptor: Agonists; D(2) dopamine receptor (Homo sapiens), P14416; DiscoveRx PathHunter D2 beta-arrestin, luminescence, 90 min; 100% = 57 uM dopamine signal; activation, % (concentration not given with the values); 0.084% of 360,000 active; AID 624465, 2012; in the data active = activation above about 40%; inconclusive = about 15% to 40%; inactive = below about 15%; also: compound concentration not given in the record; the text of the record calls up to 30% inactive
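DiscoveRx PathHunter D2 beta-arrestin cells (2,100/well) attached overnight, then compound-stimulated 90 min at 37 C in HBSS/10 mM HEPES/0.1% Tween-20 buffer; beta-galactosidase complementation read by luminescence after 1 h at ambient temperature. Dopamine 57 uM final (EC100) as control.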
D2 potentiator = Beta-Arrestin HTS for Positive Allosteric Modulators of the Human D2 Dopamine Receptor: Potentiators; potentiation, % (no concentration beside the values); 0.23% of 360,000 active; DiscoveRx D2 beta-arrestin cells, luminescence, 90 min; 100% = 57 uM dopamine signal; AID 624464, 2012; active = potentiation of 50% or more; inconclusive = 30% to 50%; inactive = 30% or less;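 also: compound concentration not given in the record; tested on top of an EC20 dose of dopamine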
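PathHunter beta-arrestin assay in DiscoveRx D2 cells. Compounds were added with an EC20 of dopamine (50 nM final) for 90 min at 37 deg C. Luminescence was read 1 h after detection reagent, with 57 uM dopamine as the EC100 control.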
TRPV1 PAM = HTS Assay for Compounds that Act as Potentiators of the Vanilloid Receptor 1; Transient receptor potential cation channel subfamily V member 1 (Homo sapiens), Q8NER1; TRPV1-expressing cells, Fluo-8 calcium influx, capsaicin EC20 potentiation; host cell line not named in the record; control for the full effect not named in the record; potentiation, % at 8.33 µM; 0.02% of 320,000 active; active means potentiation above 80%; inconclusive means 30% to 80%; inactive means below 30%; also: 0% is about no effect
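Fluo-8 calcium influx in TRPV1-expressing cells, kinetic read (ex 480/em 520 nm). Compound added and read 3 min for agonist activity, followed by capsaicin at EC20 final and 2 min further read for enhancement.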
Active calls of the source: *; ? = inconclusive; . = not tested or not shown; [ ] = dose if it differs, or a comment.

SMILES	PINK1 expr mod	Sfp inh	Six1-Eya2 inh	CtBP-E1A inh	D2 ag	D2 potentiator	TRPV1 PAM
CC(Cl)C(=O)NNc1cccc(Cl)n1 (centres undefined)	7.0%	50.1µM*	11.8	0.7	-10.5	-49.0	5.1
CC(NC(=O)c1sc2cc([N+](=O)[O-])ccc2c1Cl)C(C)(C)C (centres undefined)	22.6%	7.94µM*	-14.0	-5.8	-4.7	6.1	0.5
COc1ccc(C2C(C(=O)c3sc(C)nc3C)=C(O)C(=O)N2CCCn2ccnc2)cc1OC (centres undefined)	-0.6%	-14.3%	2.8	1.2	-3.0	-14.2	-7.6
O=C(Nc1nc2c(Cl)ccc(Cl)c2s1)C1CC1	-0.5%	11.0%	9.6	2.6	-3.4	-3.8	3.4
CCOc1ccc2[nH]c(C)c(CN3CCN(C)CC3)c(=O)c2c1	.	10.5%	2.0	8.5	-1.0	-2.1	-1.2
Cc1ccc(/C=C/C(=O)OCc2nc(N)nc(Nc3ccccc3C)n2)o1	1.5%	79.4µM*	-11.0	-5.4	-2.9	-2.8	6.7
O=C(NC1=NCCS1)c1cccc(Br)c1	-0.5%	.	3.2	7.9	-3.7	-7.9	.
O=C(NCc1ccco1)C(=O)NCC1OCCN1S(=O)(=O)c1cc(F)ccc1F (centres undefined)	2.2%	2.7%	2.9	2.7	-0.5	-9.9	-7.2
CC(C)[C@H](NC(=O)OCc1ccccc1)C(=O)OCC(=O)N1CCN(c2ccc(F)cc2)CC1	0.2%	.	-0.4	.	-4.3	-7.8	3.9
O=C(COc1ccc(S(=O)(=O)N2CCCC2)cc1)NCc1ccccn1	0.1%	3.2%	9.6	-15.8	-6.3	-4.9	15.6
CCN(CC(=O)Nc1c(F)cccc1F)C(=O)CSc1nc(C)cc(C)n1	2.1%	9.9%	3.7	15.1	-2.0	-17.5	4.6
Cc1ccc(NC(=O)COC(=O)CC2CC3CCC2C3)cc1S(=O)(=O)N1CCOCC1 (centres undefined)	2.8%	.	-10.4	-0.4	-0.1	-1.1	.
Cc1noc(C)c1S(=O)(=O)N1CCC(C(N)=O)CC1	-0.9%	11.4%	18.3	0.7	-2.6	-12.0	4.0
C[C@H]1CC[C@]2(O[C@H](CCO)C[C@H](O)[C@H]2O)O1	-1.0%	.	1.3	2.6	-4.3	-3.5	.
O=C(CSc1cccc2cccnc12)NCc1ccco1	0.2%	79.4µM*	-12.9	-12.3	-10.0	7.6	?
O=C(COc1ccccc1Cl)NC(=S)Nc1cccc(NC(=O)c2ccccc2Cl)c1	.	21.4%	-8.5	11.6	-2.6	-6.6	9.3
CCOCCn1c(-c2ccc(OC)cc2)nc2ccccc21	2.7%	21.5%	6.8	25.4	-0.4	-1.7	13.3
COc1cc(NC(=O)C2Cc3ccccc3CN2S(C)(=O)=O)cc(OC)c1 (centres undefined)	6.3%	11.5%	9.7	1.7	-4.1	-11.4	25.4
O=C(Nc1cccc(NC(=O)C2CCCO2)c1)c1ccco1 (centres undefined)	-2.4%	6.1%	21.6	27.8	0.4	-2.2	-4.6
COC(=O)c1cc(COc2ccc3c(c2)oc(=O)c2ccccc23)c(C)o1	6.9%	-25.9%	-5.4	-14.4	-3.2	-5.2	-0.1
CCN(CC(=O)NCc1cccs1)S(=O)(=O)c1c(F)cccc1F	2.5%	.	5.1	.	3.2	-2.2	5.0
COc1cc(C(=O)OCC(=O)Nc2ccc(N3CCOCC3)cc2)ccc1OCC(C)C	7.2%	.	-0.8	8.9	-1.6	-6.0	3.8
CCCCCn1c(=O)[nH]c2c(c1=O)CCC2	0.2%	5.0%	-3.2	-4.7	-5.2	-12.5	-25.3
CCO/N=C(/C)c1c(O)cc(C(C)(C)C)n(-c2ccccc2)c1=O	1.6%	-8.3%	-0.4	3.2	0.3	-1.7	-7.0
CCOc1ccc(N2C(=O)CC(Sc3nnnn3-c3ccccc3)C2=O)cc1 (centres undefined)	7.1%	15.8µM*	3.4	5.3	-2.4	-6.9	5.8
CC(C)Nc1nc(Cl)nc(Nc2ccccc2)n1	-0.1%	2.9%	-1.5	3.3	5.7	-0.5	-4.2
Cc1ccc(C(=O)NCC(=O)Nc2ccncc2)cc1C	0.4%	-0.6%	-12.8	-3.3	0.4	-17.3	5.6
Cc1ccc(/C=N/NC(=O)c2cc(-c3ccc(C)o3)[nH]n2)cc1	11.2%	21.1%	-7.5	0.4	3.5	7.0	3.4
Cc1[nH]nc2c1C1(CCC3(CC1)OCCO3)C(C#N)=C(N)O2	.	14.3%	5.0	4.9	-2.6	-2.3	-4.2
Cc1ccc(S(=O)(=O)NNC(=O)c2cc([N+](=O)[O-])c(C)c([N+](=O)[O-])c2)cc1	-0.5%	.	1.8	-4.5	-6.7	2.1	.
COc1ccccc1OCC(=O)OCC(=O)Nc1ncc(Cl)cc1Cl	-1.7%	8.8%	0.2	-0.7	-4.2	13.9	-0.7
CCn1c(CN2CCCCCC2=O)nnc1SCc1cnc(-c2ccccc2)s1	-3.2%	7.4%	-0.3	-1.5	-1.0	-7.0	-2.3
c1coc(CSc2ncnc3c2oc2ccccc23)c1	1.0%	56.2µM*	5.5	3.3	-0.3	-1.7	-29.9
CC(Sc1nc2ccccc2c(=O)n1CC1CCCO1)C(=O)NC(C)c1ccccc1 (centres undefined)	7.2%	.	0.1	-0.8	0.9	-6.6	9.6
COc1ccc(OCC(=O)N/N=C/c2ccc(OC)c(OC)c2C(=O)O)cc1	-1.5%	1.0%	-1.3	2.3	-0.2	1.9	-2.8
CCCCOC(=O)CNc1nnc(SCC(=O)OCC)[nH]c1=O	2.7%	20µM*	4.4	3.9	-3.3	-23.6	-36.4
C1CCN(c2c3c(nc4nnnn24)CCCC3)CC1	-1.6%	7.6%	0.0	15.9	-2.4	22.8	2.6
Cc1ccccc1N=C1NN=C(c2ccccc2F)CS1	?	16.4%	-26.2	?	-16.9	-17.2	6.2
CCN1CCN(S(=O)(=O)c2ccc(Cl)c(C(=O)NCc3nc4ccccc4[nH]3)c2)CC1	-0.4%	.	3.8	4.0	-0.1	-21.3	.
O=C(NS(=O)(=O)Nc1ccc(Cl)cc1)c1c[nH]c2ccccc12	-0.1%	11.7%	6.0	6.1	2.1	0.6	10.4
O=C(c1cc2c(ccc3ccccc32)oc1=O)N1CCN(CCO)CC1	2.0%	5.9%	5.8	1.6	1.5	-2.0	15.4
O=C1NC[C@@H](CCCCN2CCN(CC3CCCCC3)C(=O)C2=O)N(CC2CCCCC2)C1=O	2.1%	.	9.5	3.3	.	.	.
O=C(Cc1ccc(F)cc1)Nc1nccs1	2.6%	15.9%	4.2	.	1.1	-23.1	2.7
CC(C)NC1(C(N)=O)CCNCC1	-3.4%	.	-5.6	0.9	-1.3	0.1	.
CCN1c2ccccc2-c2nc3ccccc3n2C1c1ccccn1 (centres undefined)	0.6%	0.5%	-0.2	-10.4	-3.2	0.5	-9.7
COc1ccc(C(=O)NNC(=O)C(=O)Nc2cccc3ccccc23)cc1	2.2%	9.3%	3.9	2.9	1.7	-4.7	6.2
CCCCNC(=O)c1ccc(CNS(=O)(=O)c2ccc(Br)cc2)cc1	-0.9%	13.1%	5.4	0.6	-18.5	0.7	0.5
Cc1cc(=O)oc2c(CN3CCCC3)c(O)c(Cl)cc12	-1.3%	1.1%	9.4	15.8	-1.8	-4.7	-14.2
Cc1cccc(NC(=O)c2c([N+](=O)[O-])cnn2C)c1	-0.5%	13.2%	1.7	.	0.3	-15.7	-0.5
CCN(CC)S(=O)(=O)c1ccc(N=NC2=C(O)CC(C)(C)CC2=O)cc1	1.0%	-3.0%	23.5	0.0	-4.9	-5.8	-1.0
Nc1cc(N)nc(SCC(=O)NC2CCCCCCC2)n1	2.1%	.	5.3	2.2	-1.5	-13.2	8.2
CCOC(=O)c1sc(=NC(=O)c2cccc(C)c2)n(C)c1C	0.3%	11.2%	2.8	-0.9	2.2	4.0	-21.9
CC(=O)c1c(COC(=O)c2ccc(C)cc2)nc2ccccc2[n+]1[O-]	-0.3%	-0.3%	-4.0	-0.4	-1.7	-3.5	-3.1
Fc1ccc(-[n+]2nc(Nc3ccccc3)sc2-c2cccc(Cl)c2Cl)cc1	-1.0%	1.0%	-0.9	-0.7	-2.3	-11.6	10.5
CC(CNS(=O)(=O)c1ccc2c(c1)NC(=O)CCS2)c1ccccc1 (centres undefined)	-1.0%	7.1%	0.4	2.2	-1.2	4.8	7.4
COCCSc1ccccc1C(=O)N1CCN(Cc2ccc3c(c2)OCO3)CC1	-2.2%[38.3 µM]	-11.6%	4.0	6.0	0.1	-24.2	-1.5
Cc1ccccc1C(=O)NC1CCN(C(=O)N(c2ccccc2)c2ccccc2)CC1	-2.2%	?	0.9	3.7	-1.2	-12.3	-3.0
CCN1CCN(c2ccc(Cl)cc2NC(=O)c2ccco2)CC1	-0.3%	.	22.9	.	-2.5	-34.8	9.5
CN1CCN(C(=O)c2ccc3c(c2)N(Cc2cccc(Cl)c2)C(=O)c2ccccc2S3=O)CC1 (centres undefined)	1.3%	.	12.6	-1.5	-4.5	-11.7	.
O=C(NCC1CCCO1)c1cc(-c2ccco2)nc2ccccc12 (centres undefined)	0.8%	-20.2%	2.3	5.0	-0.6	1.1	2.2

Additional structures.
SMILES	PINK1 expr mod	Sfp inh	Six1-Eya2 inh	CtBP-E1A inh	D2 ag	D2 potentiator	TRPV1 PAM
COc1cccc2c(=O)n(CC(=O)NC3CCCC3)ccc12	4.0%	17.4%	0.1	6.6	-2.5	-2.8	11.9
Cc1ccc(C)c(C(=O)COC(=O)c2c(-c3ccccc3)noc2C)c1	1.2%	.	39.5	16.3	-2.6	-8.4	12.3
O=C(/C=C/c1ccccc1)NCC(=O)N/N=C/c1cccs1	-0.2%	2.8%	0.4	4.8	-2.7	-4.2	-7.4
COc1cc(C2C(C(=O)c3ccco3)=C(O)C(=O)N2CCc2ccccc2)ccc1O (centres undefined)	0.3%	5.4%	-4.1	-2.9	-4.7	-7.1	7.7

The order is random; 3.7% or so of the library scored in one or more.
